# Screens from PubChem.
# NPYLR7 ag – activates Aedes aegypti NPYLR7 receptor; HEK293T NPYLR7/Galpha15, GCaMP6s calcium fluorescence; activation, % at 10 µM; 270,000 tested, 0.15% active; in the data active = activation above about 40%;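 note: 0% = vehicle and 100% = reference agonist at the receptor; some compounds past the cut are filed as inactive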
# NPYLR7 ag max-min – second read-out of NPYLR7 ag, no call of its own (marks repeat the call); activation, %; measured here: Max-Min RFU normalised activation; some inactives read as strong as hits;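 span of the calcium signal over five minutes; 0% = vehicle and 100% = native peptide agonist; compound fluorescence can raise it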
# Numbers without * were called inactive; & = joins results of further samples. This is a subset; count on the stated rates, not on these rows.
SMILES,NPYLR7 ag,NPYLR7 ag max-min
CCc1nc2n(n1)C(=O)C(C(c1ccc(OC)cc1)N1CCN(c3ccccc3F)CC1)S2 (stereo unspecified),-5,-11
Cc1cc(C)n(-c2cc(N3CCN(S(=O)(=O)c4ccccc4Cl)CC3)nc(C)n2)n1,-3,-12
O=C(c1ccc(C(F)(F)F)cc1)C1CCCN(C(=O)CSc2ccccn2)C1 (stereo unspecified),1,0
CCOCc1ccc(CNS(=O)(=O)c2ccc(Br)cc2Cl)cc1,-4,-1
CCc1cc(=O)[nH]c(-n2nc(C)cc2NC(=O)/C=C/c2ccc3c(c2)OCO3)n1,8,2
CN(C)Cc1ccc(C2CCCN2C(=O)COc2cccnc2)cc1 (stereo unspecified),9,6
COc1cccc(Cc2nsc(N3CCCC(C(=O)N4CCN(c5ccc([N+](=O)[O-])cc5)CC4)C3)n2)c1 (stereo unspecified),20,19
COc1ccccc1/C=C/C(=O)Nc1nc2ccc(C)cc2s1,-3,-1
CCCCN1CCCn2cccc2C1c1cccc(F)c1 (stereo unspecified),9,12
COc1cccc(CNC(=O)C2CCN(c3ncnc4c3sc3ncccc34)CC2)c1,-3,-5
CN1CCC(N(C)C(=S)Nc2ccc(F)cc2)CC1,-8&4,-9&-1
CCCCCc1ccc(C(=O)Nc2ccc(-c3cccc(-c4cc(OC)ccc4OC)n3)cc2)cc1,24,27
Cc1csc(N2C(=N)SC(C)C2=O)n1 (stereo unspecified),1,2
COc1ccc(C(=O)Nc2ccc(C3SCC(=O)N3c3ccc(C(F)(F)F)cc3)cc2)cc1 (stereo unspecified),-2,5
CCCCc1ccc(C(=O)N(CCCC)CC(=O)N(CCOC)Cc2cccn2C)cc1,15,14

# Brought forward from above: 2 entries; new compounds follow.
SMILES,NPYLR7 ag,NPYLR7 ag max-min
COc1ccc(C(=O)Nc2ccc(C3SCC(=O)N3c3ccc(C(F)(F)F)cc3)cc2)cc1 (stereo unspecified),-2,5
CCCCc1ccc(C(=O)N(CCCC)CC(=O)N(CCOC)Cc2cccn2C)cc1,15,14
COc1ccc(OC)c2sc(N(CCCN(C)C)C(=O)c3cc(C)on3)nc12,5,2
COc1ccc(CCCNC(=O)c2ccc(-c3cccc4cccnc34)nc2)cc1,3,1
O=C(NCc1ccc(C(F)(F)F)cc1)c1cnc2c(cnn2C2CCCC2)c1,1,0
Cc1ccc(S(=O)(=O)N2CCN(S(=O)(=O)c3ccc(F)cc3)CC2)cc1,6,2
CCOC(=O)Cn1c(=NC(=O)c2ccc([N+](=O)[O-])cc2)sc2c(C)cc(C)cc21,1,1
Cc1oc(-c2ccccc2)nc1Cn1ccn2nc(-c3ccc(Cl)cc3)cc2c1=O,13,11
Cc1cccc(-n2cc(CN(C)Cc3cccnc3)c(-c3cccc(F)c3)n2)c1,-4,-7
CCOC(=O)CSc1nc(-c2ccc(S(C)(=O)=O)cc2)[nH]c1-c1ccccc1,12,6
COCCCN(Cc1ccc(C)cc1)CC(C)O (stereo unspecified),-4,2
CCn1nnc2c(N3CC(C)OC(C)C3)ncnc21 (stereo unspecified),12,5
Clc1ccc(CON=C(Cn2ccnc2)c2ccc(Cl)cc2Cl)c(Cl)c1,-8,-11
CCOC(=O)C1(CCCc2ccccc2)CCN(C(=O)NC2CCS(=O)(=O)C2)CC1 (stereo unspecified),-3,-4
O=C(NCc1ccncc1)c1coc(CN(Cc2cccc(Oc3ccccc3)c2)Cc2ccc3c(c2)OCO3)n1,19,27
O=C(Nc1cccc(Cl)c1)NC1CCN(c2ccccc2C(=O)NCc2cccnc2)CC1,1,7
CC(C)S(=O)(=O)NC(=O)C1(C)CCN1C(=O)Cc1cccs1 (stereo unspecified),0,-7
Cc1nc2ccc(S(=O)(=O)NCCCn3nc(-c4ccccc4)ccc3=O)cc2s1,-1,-1
O=C(Nc1ccc(N2CCOCC2)nc1)C(=Cc1cccs1)n1nnnc1-c1ccccc1,1,0
CN1C(=CC(=O)c2oc3ccccc3c2N)C(C)(C)c2ccccc21,5,5
CC1CN(Cc2ccc(C(=O)N(C)Cc3cnn(C)c3)cc2)CCO1 (stereo unspecified),-1,-3
CCOC(=O)c1ccc(N2CCCC2C(=O)Nc2ccc(Cl)cc2Cl)nc1 (stereo unspecified),0,-1
O=C(CCC1CCN(C(=O)C2CCOCC2)CC1)NC1CCN(Cc2ccccc2)C1 (stereo unspecified),21,7
Cc1ccc(Cl)c(Oc2cc(N(C)Cc3ccccc3)ncn2)c1,-12,0
CCCC(C)(C)C(=O)N1CCC1(C)C(=O)NS(=O)(=O)c1cccs1 (stereo unspecified),13,13
O=c1c2cnc(N3CCCC3)nc2ccn1-c1ccc(Cl)c(Cl)c1,-1,3
CC(C)C(=O)NCCCn1nc(-c2cccs2)ccc1=O,1,1
COc1ccc(CC2CCN(C(=O)c3ccc(OC)c(OC)c3)CC2)cc1,1,-3
CN(Cc1ccc(-n2cccn2)cc1)Cc1ccc(-c2ccn[nH]2)o1,5,1
O=[N+]([O-])c1ccccc1S(=O)(=O)N1CCN(c2nnnn2-c2ccccc2)CC1,5,8
Cn1ccnc1CN(C(=O)c1ccc(NC(=O)C2CCC2)cc1)C1CC1,-6,-11
COc1ccc(CC(=O)N2CCC(CCC(=O)Nc3ccccc3)CC2)cc1,1,-3
O=C1CC(c2ccco2)Cc2nc(NC3CCCC3)ncc21 (stereo unspecified),-1,-5
O=C(c1ccsc1)N1CCCN(C(=O)c2ccccc2OC2CCCC2)CC1,0,70
Cn1c(=O)c2c(nc3n(CCN4CCOCC4)c(-c4cccs4)cn23)n(C)c1=O,5,8
CCCCCN(Cc1cccn1Cc1cccc(C(F)(F)F)c1)C(=O)CN(CC)C(=O)c1cccc(F)c1,-5,4
CC#CC(=O)N1CCCC(CCc2ccc(OC)cc2)C1 (stereo unspecified),6,2
Cc1cc(=O)n2nc(CN3CC(C(=O)N4CCOCC4)Oc4ccccc43)sc2n1 (stereo unspecified),10,5
Cc1cnc(C(=O)N2CCOC(CCCc3ccccc3)C2)cn1 (stereo unspecified),-1,-6
CN(Cc1ccc(Br)cc1)CN1C(=O)C2CCC1C2 (stereo unspecified),9,7
COCCN1CCCC(O)(CNC2CCN(c3ccccc3F)CC2)C1=O (stereo unspecified),0,-5
Cc1ccc(C(=O)N2CCCN(C(=O)OC(C)(C)C)CC2)cc1S(C)(=O)=O,-2,-3
COc1ccc2oc(=Nc3ccc(-c4ccccc4)cc3)c(-c3nc4ccccc4[nH]3)cc2c1,-4,-6
COc1ccc(-c2cc(CC(=O)N3CCCCCC3)no2)cc1OC,0,2
CCn1c(C2CCCNC2)nn(Cc2c(F)ccc(C)c2Cl)c1=O (stereo unspecified),14,3
C=C(C)Cn1c(C(C)O)nc2ccccc21 (stereo unspecified),5,9
Cc1nn(C)c2ncc(C(=O)N(C)Cc3ccccc3)cc12,7,5
O=C(CSc1nc2c(c(=O)n1-c1ccccc1)SCC2)OCc1ccccc1,-1,-2
COCCCN(CC(=O)N1CCc2sccc2C1COc1ccccc1OC)C(=O)C1CCCC1 (stereo unspecified),-4,1
CC(C)NC(=O)CSc1nnc(N)s1,2,0
CC(=O)Nc1ccc(C(=O)Nc2ccccc2N)cc1,-2,-9
Cn1cc(CN2CCSCC2)c(-c2ccc3c(c2)OCCO3)n1,-1,-1
C=C(C)CNC(=O)CC1C(=O)NCCN1Cc1ccccc1C(F)(F)F (stereo unspecified),2,3
Cc1nnc2ccc(N3CCN(C(=O)Nc4ccccc4)CC3)nn12,3,9
CC(Nc1cc(N2CCNCC2)ccc1[N+](=O)[O-])C12CC3CC(CC(C3)C1)C2 (stereo unspecified),4,0
CC12C(=O)N(c3nccs3)C(=O)C1C1C=CC2C1 (stereo unspecified),6,2
O=C(COc1ccc(Cl)cc1)NC(Cc1ccccc1)C(=O)Nc1nnc(-c2cccc(Cl)c2)s1 (stereo unspecified),0,11
CSc1ccccc1C(=O)N1CCCC(CNC(=O)c2ccccc2Cl)C1 (stereo unspecified),10,0
CC(=NNc1nc(C)cc(C)n1)c1ccc2c(c1)OCO2,1,0
N#CC(C#N)=C1c2cc(S(=O)(=O)NCCO)ccc2-c2ccc(S(=O)(=O)NCCO)cc21,-1,1
COc1ccccc1CNC(=O)CC1C(=O)NCCN1Cc1ccccc1C (stereo unspecified),-2,-5
Cc1nc(NCC(=O)OCC(=O)OC(C)(C)C)c2c(C)c(C)sc2n1,1,-1
# Other compounds follow.
SMILES,NPYLR7 ag,NPYLR7 ag max-min
O=C1c2cccn2CCC1C(O)c1cc[n+](Cc2ccccc2)cc1 (stereo unspecified),0,-1
CCOC(=NC1CCCc2ccccc21)NC(=O)c1ccc(F)cc1 (stereo unspecified),10,12
Cc1cc2oc(=O)cc(Cn3ccnc3)c2cc1C,-2,1
CC(C)c1cc(=O)[nH]c(-n2nc(-c3cccs3)cc2NC(=O)c2ccc(F)c(F)c2)n1,5,1
CC(C)CN1CC(C(=O)N2CCC(Nc3ncccn3)CC2)CC1=O (stereo unspecified),12,11
CCN(CC(=O)NC(C)(C)C)CC(O)c1ccccc1Cl (stereo unspecified),1,-1
O=C1OC(Nc2ccc(Br)cc2)c2ccccc21 (stereo unspecified),13,4
COc1ccc(Br)cc1S(=O)(=O)NCc1ccc(C)cc1,0,-4
COc1ccc(COC(=O)C2=C(C)NC3=C(C(=O)CCC3)C2c2ccc(OC)c(O)c2)cc1 (stereo unspecified),-8,-14
O=C(Nc1ccc(S(=O)(=O)N2CCCC2)cc1)c1ccc2ncsc2c1,-2,-3
COCCOc1nc(-c2ccccc2F)n(-c2cccc(NC(=O)c3cccc(OC)c3)c2)n1,-11,0
CC(=O)c1ccc(C(=O)N2CCCC(Nc3ccc4c(c3)OCCO4)C2)s1 (stereo unspecified),2,-2
COc1ccc(OC)c(NC(=O)N(C)C2CCN(C)CC2)c1,-6,-10
CC(Cn1cncn1)NCc1cn(C)nc1-c1ccc(Oc2ccccc2)cc1 (stereo unspecified),6,5
CC(C)CC(=O)N1Cc2ccccc2CC1C(=O)NC1CCCc2occc21 (stereo unspecified),3,-1

# Some of the entries so far, bar-delimited:
mol | NPYLR7 ag | NPYLR7 ag max-min
C=C(C)CNC(=O)CC1C(=O)NCCN1Cc1ccccc1C(F)(F)F (stereo unspecified) | 2 | 3
Cc1nnc2ccc(N3CCN(C(=O)Nc4ccccc4)CC3)nn12 | 3 | 9
CC(Nc1cc(N2CCNCC2)ccc1[N+](=O)[O-])C12CC3CC(CC(C3)C1)C2 (stereo unspecified) | 4 | 0
CC12C(=O)N(c3nccs3)C(=O)C1C1C=CC2C1 (stereo unspecified) | 6 | 2
O=C(COc1ccc(Cl)cc1)NC(Cc1ccccc1)C(=O)Nc1nnc(-c2cccc(Cl)c2)s1 (stereo unspecified) | 0 | 11
CSc1ccccc1C(=O)N1CCCC(CNC(=O)c2ccccc2Cl)C1 (stereo unspecified) | 10 | 0
CC(=NNc1nc(C)cc(C)n1)c1ccc2c(c1)OCO2 | 1 | 0
N#CC(C#N)=C1c2cc(S(=O)(=O)NCCO)ccc2-c2ccc(S(=O)(=O)NCCO)cc21 | -1 | 1
COc1ccccc1CNC(=O)CC1C(=O)NCCN1Cc1ccccc1C (stereo unspecified) | -2 | -5
Cc1nc(NCC(=O)OCC(=O)OC(C)(C)C)c2c(C)c(C)sc2n1 | 1 | -1
O=C1c2cccn2CCC1C(O)c1cc[n+](Cc2ccccc2)cc1 (stereo unspecified) | 0 | -1
CCOC(=NC1CCCc2ccccc21)NC(=O)c1ccc(F)cc1 (stereo unspecified) | 10 | 12
Cc1cc2oc(=O)cc(Cn3ccnc3)c2cc1C | -2 | 1
CC(C)c1cc(=O)[nH]c(-n2nc(-c3cccs3)cc2NC(=O)c2ccc(F)c(F)c2)n1 | 5 | 1
CC(C)CN1CC(C(=O)N2CCC(Nc3ncccn3)CC2)CC1=O (stereo unspecified) | 12 | 11
CCN(CC(=O)NC(C)(C)C)CC(O)c1ccccc1Cl (stereo unspecified) | 1 | -1
O=C1OC(Nc2ccc(Br)cc2)c2ccccc21 (stereo unspecified) | 13 | 4
COc1ccc(Br)cc1S(=O)(=O)NCc1ccc(C)cc1 | 0 | -4
COc1ccc(COC(=O)C2=C(C)NC3=C(C(=O)CCC3)C2c2ccc(OC)c(O)c2)cc1 (stereo unspecified) | -8 | -14
O=C(Nc1ccc(S(=O)(=O)N2CCCC2)cc1)c1ccc2ncsc2c1 | -2 | -3
COCCOc1nc(-c2ccccc2F)n(-c2cccc(NC(=O)c3cccc(OC)c3)c2)n1 | -11 | 0
CC(=O)c1ccc(C(=O)N2CCCC(Nc3ccc4c(c3)OCCO4)C2)s1 (stereo unspecified) | 2 | -2

# (listing goes on)
SMILES,NPYLR7 ag,NPYLR7 ag max-min
CCC(O)CN(Cc1ccccc1)Cc1cccn1Cc1ccc(F)cc1 (stereo unspecified),-4,4
Nn1cnnc1N/N=C\c1cc([N+](=O)[O-])c(Cl)cc1Cl,-8,-15
CC(Oc1ccccc1F)C(=O)NNC(=O)COc1ccccc1C#N (stereo unspecified),-7,-9
CCCSc1ncccc1C(=O)N1CCN(CCCOC(c2ccc(Cl)cc2)c2ccc(Cl)cc2)CC1,5,-1
Cc1ccc2cccc(OC(=O)c3ccc(Br)o3)c2n1,-5,-10
COCCn1c(N/N=C\c2ccc(Cl)cc2)nc2c1c(=O)[nH]c(=O)n2C,10,15
COc1ccc(-c2ccc(=O)n(CCNS(=O)(=O)c3ccc(OC)cc3OC)n2)cc1,-2,-2
COc1ccccc1N1CCN(c2ccc(NC(=O)c3ccc(Cl)cc3)cc2C(=O)NC2CCCCC2)CC1,18,16
N#CCSc1n[nH]c(CCc2nc(SCC#N)n[nH]2)n1,-2,-2
CC1=NOC(Cc2ccccc2)C(=O)N1Cc1ccc(C)cc1 (stereo unspecified),8,3
O=C(NC(C(=O)N1CCCC1)C1CCN(C(=O)c2cccc(Br)c2)CC1)c1cccs1 (stereo unspecified),8,17
Cc1cc(NNS(=O)(=O)c2ccc(Cl)c(Cl)c2)n2ncnc2n1,-9,-11
Cc1c(C(=O)N2CCCCCC2)sc2nc(-c3ccccc3)cn12,-1,-2
CCCCCCCOc1ccc(C(=O)N2CCC(c3cn(CCOCC)c4ccccc34)CC2)cc1,3,0
O=C(NCc1ccc2c(c1)OCO2)c1coc(COc2cccc(F)c2F)n1,20,12
CCOC(=O)c1ccc(CNc2nncc(-c3ccccc3F)n2)o1,-3,-5
